# Screens deposited in PubChem by several laboratories.
# HIV Env fusion = HIV envelope-mediated fusion inhibition | inhibition, % at 12.3 µM | AID 651610 | actives 1.1% (n = 360,000) | HeLa-JRFL Env/CEM21 cell fusion, luciferase;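 active = mean replicate inhibition score of at least 50 and every replicate individually at or above 50; inconclusive = only one of the two criteria met; inactive = mean below 50 and not all replicates reaching 50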;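 note: 0% = plate neutral controls and 100% = maraviroc near 300 nM; one replicate is shown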
# Yeast UUG start = yeast start codon fidelity modulation; actives 0.13% (n = 350,000); activity score, % at 18.7 µM; AID 602363; S. cerevisiae UUG-firefly luciferase reporter, luminescence/redox ratio;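 active = replicate mean at a twofold rise or more, about +100% in these data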;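 note: firefly luciferase made from a UUG start codon reports start codon fidelity; reporter light over untreated wells divided by growth signal over untreated wells; some hits fall short of that in this replicate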
# eIF4H FP inh = inhibitors of RNA binding by human eIF4H | inhibition, % at 35 µM | AID 2012 | Q15056 | actives 0.94% (n = 290,000) | eIF4H fluorescence polarization binding assay;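 active = 50% or more with normal probe brightness, or confirmed in later tests; inconclusive = above 50% with abnormal brightness, or retests that disagree; inactive = below 50% or failed in later tests; about a fifth of its hits are not listed in these tables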;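 note: calls also rest on retests at 20 µM and on dose response follow-up; 0% = protein and probe with vehicle and 100% = probe without protein; strong numbers were not always called active; many hits fall short of the cut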
# PABP FP inh = PABP-poly(A) binding inhibition | AID 2014 | PABP-poly(A) RNA binding, fluorescence polarization | inhibition, % at 35 µM | actives 1% (n = 290,000) | P11940;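 active = 50% or more with normal probe brightness, or confirmed in later tests; inconclusive = above 50% with abnormal brightness, or retests that disagree; inactive = below 50% or failed in later tests; about a fifth of its hits are not listed in these tables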;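 note: calls also rest on retests at 20 µM and on dose response follow-up; controls were probe without protein and protein plus probe with vehicle; some compounds called inactive have numbers as strong as hits; many hits fall short of the cut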
# Rce1 inh = yeast Ras-converting enzyme inhibition; actives 0.27% (n = 290,000); yeast membranes, quenched prenylated peptide cleavage fluorescence; calls only; Q03530;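 active = fall in fluorescence gain of 50% or more versus controls, with final raw signal at or below 3038400; inconclusive = same 50% fall but final raw signal above 3038400; inactive = fall in fluorescence gain under 50%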;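 note: plate controls were neutral control wells for no effect and wells lacking membranes for full effect; tested at 10 µM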
# Target sequence (Q03530 whole entry, looked up): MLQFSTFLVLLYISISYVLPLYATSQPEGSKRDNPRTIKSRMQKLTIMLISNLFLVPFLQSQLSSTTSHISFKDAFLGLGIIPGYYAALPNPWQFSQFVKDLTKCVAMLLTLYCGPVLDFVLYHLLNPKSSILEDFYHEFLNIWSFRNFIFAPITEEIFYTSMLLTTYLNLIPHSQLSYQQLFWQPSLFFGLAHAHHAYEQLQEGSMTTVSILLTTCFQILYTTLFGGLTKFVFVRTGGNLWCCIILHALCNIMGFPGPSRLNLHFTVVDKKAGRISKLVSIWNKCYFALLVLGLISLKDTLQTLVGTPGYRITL
# MT1-MMP act inh = inhibitors of human MT1-MMP activation; AID 651647; actives 0.061% (n = 360,000); GFP/RFP ratio change, % at 20 µM; HT1080 RFP-PRO-GFP cells, GFP/RFP ratio fluorescence, overnight; percent of plate control window, DMSO zero; P50281;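 active = GFP/RFP ratio change of at least 30% with cell ATP level not reduced by more than half and red fluorescence within 50% of control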; note: strong numbers were not always called active
#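 Material – HT1080 RFP-PRO-GFP cells · Control set – DMSO wells and RFP-L50D-GFP cells · Incubation – overnight cell settling, then overnight compound exposure, 37 °C, 5% CO2 · Compound dosing – single-point 20 µM compound, 1% DMSO · Read-out – GFP/RFP fluorescence ratio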
# CSC inhib = cancer stem cell inhibition. inhibition, % at 7.5 µM. cancer stem cell-like cells viability, luminescence. actives 1.1% (n = 300,000);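 active = mean at 75% or more and at least half the replicates too; inconclusive = mean and replicates disagree; tested in HMLE shEcad cells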;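 note: 0% = median of negative and 100% = median of positive control wells; the first replicate is given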
# eIF4H FP inh retest = second read-out of eIF4H FP inh, no call of its own (marks repeat the call); inhibition, %; compound at 20 µM; confirmation average;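 mean of two retest wells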
# PABP FP inh retest = second read-out of PABP FP inh, no call of its own (marks repeat the call); inhibition, %; compound at 20 µM; confirmation repeats;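 mean of two retest wells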
# MT1-MMP act inh RFP = second read-out of MT1-MMP act inh, no call of its own (marks repeat the call); RFP signal change, %; measured here: RFP expression control read;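 0 = vehicle wells; hits needed this value within 50% of zero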
# Numbers without * were called inactive; i = inactive; ? = inconclusive; nt = not tested or not shown. Not all compounds are listed (hit frequency here may not be typical).
SMILES,HIV Env fusion,Yeast UUG start,eIF4H FP inh,PABP FP inh,Rce1 inh,MT1-MMP act inh,MT1-MMP act inh RFP,CSC inhib,others
CN(C)P(=O)(CCl)Nc1ccccc1 (configuration not stated),-17.3,-8.7,96.1*,17.7*,i,-14.2,-5.6,2.8,eIF4H FP inh retest=106.5*;PABP FP inh retest=82.4*
O=S1(=O)N(Cc2ccc(F)cc2)CCCN1Cc1ccccc1Cl,-1.4,-11.8,1.8,-16.1,i,3.6,3.2,-2.4,
O=C(Nc1cccc2ccccc12)N1Cc2ccccc2-n2nncc2C1,-0.1,-25.6,nt,nt,nt,2.8,-5.5,nt,
O=C(NCC1=C(c2ccc3ccccc3c2)C[C@@H]2CC[C@H]1N2Cc1ccco1)c1ccncc1,-0.2,-8.7,nt,nt,nt,-3.0,0.0,nt,
CCc1nnc(NC(=O)CCc2nc(C3=CCN(C)CC3)no2)s1,nt,-0.9,-3.2,1.8,i,-2.7,-0.4,19.1,
CCCC[n+]1cc(=N)o[n-]1,4.5,nt,nt,nt,i,0.7,0.8,-9.7,
O=c1[nH]c(=O)n(Cc2ccco2)c(O)c1C=NC1CCN(Cc2ccccc2)CC1,-2.5,16.5,-1.0,17.2,i,4.3,1.1,-12.1,
COc1cc2c(cc1OC)C(C(=O)N1CCC3(CC1)OCCO3)C(c1ccccc1F)N(C)C2=O (configuration not stated),-3.1,5.3,-6.4,-6.7,nt,2.8,6.8,1.2,
Cc1cc(NC(=O)COC(=O)c2c(C)nn(Cc3ccccc3Cl)c2C)no1,nt,nt,-2.5,0.2,i,-3.6,-6.8,7.0,
C/C(=N\Nc1ccccc1)c1c(O)[nH]c(=O)[nH]c1=O,-0.1,nt,4.6,11.9,i,2.4,4.9,81.6*,
CN1C(=O)N(C)C(=O)C2(Cc3cc([N+](=O)[O-])ccc3N(C)C2)C1=O,-9.4,-13.7,-15.0,3.3,i,4.5,-0.8,-4.5,
C/C(=N\NC(=S)Nc1ccccc1)c1c(O)n(C)c(=O)n(C)c1=O,3.7,nt,-4.7,-4.0,i,1.1,7.5,-5.0,
O=c1cccc2n1CC1CC2CN(C(c2ccccc2)c2sc3ncnn3c2O)C1 (configuration not stated),-0.2,-15.3,-8.2,0.2,i,0.5,0.6,4.2,
CC1(C)C(c2ccccc2)=NC(c2cccnc2)=[N+]1[O-],nt,-9.5,8.0,-0.6,i,3.5,1.3,-8.8,
CC(C)CCNC(=O)c1c(N)n(Cc2ccc3c(c2)OCO3)c2nc3ccccc3nc12,15.8,nt,-4.4,-1.9,i,-33.3,-10.1,28.9,
CC[C@H]1CN2CC[C@@]3(C(=O)Nc4ccccc43)[C@@H]2C[C@@H]1/C(=C\OC)C(=O)OC,nt,-6.8,nt,nt,i,8.3,4.8,-17.2,
Clc1cccc(Cl)c1Cl,nt,-18.2,nt,nt,nt,-0.6,6.3,-5.5,
O=C(CNC(=O)OCc1ccccc1)Nc1ccc(Br)cc1C(=O)c1ccccc1,59.2*,-2.0,-2.8,-5.6,i,-4.8,-11.9,-7.9,
CCOC(=O)N1CCN(C(C)C(=O)c2c[nH]c3ccccc23)CC1 (configuration not stated),nt,-3.5,0.6,3.7,i,6.0,-16.1,-9.9,
CCOc1cc2c(cc1OCC)-n1cccc1C(c1c(O)cccc1OC)NC2 (configuration not stated),24.3,1.0,-2.7,-4.7,i,-0.6,-6.4,-9.5,
O=c1[nH]c(O)c(N=Nc2cc(C(F)(F)F)ccc2Cl)c(=O)[nH]1,-5.9,nt,7.8,-2.6,i,1.5,1.0,-5.6,
CCOc1cc2c(cc1OCC)-n1cccc1C(c1cc(OC)ccc1F)NC2 (configuration not stated),10.5,21.8,-8.4,4.7,i,-1.1,-0.8,-7.7,
CCOC(=O)c1cccc(-[n+]2c(-c3ccccc3)cc(-c3ccccc3)cc2-c2ccccc2)c1,?,-3.5,nt,nt,i,3.6,-31.9,18.5,
CCc1c(C(=O)NN2C(=O)C3C4CCC(O4)C3C2=O)csc1C (configuration not stated),10.9,-37.6,2.8,-3.2,i,1.2,2.8,nt,
CN(C)C(=O)Oc1ccc(Br)cc1C(=O)Nc1ccc(F)c(Cl)c1,16.6,-13.4,0.2,10.7,i,1.8,2.3,33.4,
CCOc1cccc(CNCCc2c(C)[nH]c3ccc(OC(F)(F)F)cc23)c1O,62.5*,-7.0,-1.9,2.0,i,-11.7,-24.4,124.0*,
COc1cc(/C=C2\C(=O)NC(=O)N(c3ccc(C)cc3)C2=O)cc(OC)c1O,-3.9,-4.9,42.6,-4.4,i,-8.8,2.7,5.3,
O=Cc1cn(Cc2ccc(Br)cc2)c2ccccc12,-2.0,1.2,-8.7,-0.6,i,-1.9,-13.4,32.5,
CCOc1ccccc1-n1c(O)c(C=Nc2c(C)n(C)n(-c3ccccc3)c2=O)c(=O)[nH]c1=O,nt,-5.2,-2.9,-0.6,i,0.3,2.0,-15.0,
CCOc1ccc(-c2cc(C)[n+](CCN3CCOCC3)c(-c3ccc(OCC)cc3)c2)cc1,7.8,nt,-10.9,-9.4,i,-0.6,-15.6,12.0,
C/C(=N\N1CCCCC1)c1c(O)[nH]c(=O)[nH]c1=O,-73.5,nt,-9.5,2.0,i,1.7,7.0,-16.0,
COc1ccc(CCn2c(O)c(C=Nc3ccc(F)cc3)c(=O)[nH]c2=O)cc1OC,-37.9,-1.7,38.1,12.7,i,-10.9,-16.0,8.7,
COc1ccc(CCNC(=O)COC(=O)Cc2ccccc2)cc1,-0.3,-17.5,-7.7,-2.3,i,2.0,2.0,14.6,
CN(C)c1ccc(CCN2CCOCC2)cc1,12.7,0.2,nt,nt,i,-0.6,0.3,2.0,
O=C(NC1CCCCC1)N1Cc2cc(-c3cccc(F)c3)ccc2-n2nncc2C1,-21.2,-14.4,nt,nt,nt,1.3,-2.1,nt,
CCn1c(P(C)(=O)O)nc2cc(NC(=O)c3ccccc3F)ccc21,-4.9,nt,-10.5,-13.7,i,-3.3,-4.1,0.2,
CCn1cc(C(=O)c2ccccc2)c2ccccc21,7.4,nt,2.9,8.2,i,0.0,-1.4,nt,
CC12CN3CC(C)(CN(C1)C31CCOCC1)C2=O,nt,-2.7,-9.6,-5.1,i,2.5,3.2,nt,
Cc1ccccc1-n1c(C)cc(/C=C2/C(=O)NC(=O)N(Cc3ccco3)C2=O)c1C,-28.7,-23.6,?,58.9*,i,-8.4,3.8,-4.0,PABP FP inh retest=107.0*
Cc1nc2ccc(Cl)cn2c1P(=S)(N1CCOCC1)N1CCOCC1,nt,-4.1,8.4,8.6,i,12.6,5.0,-3.1,
CCCC(C)C1(CC)C(=O)NC(=O)N=C1N (configuration not stated),9.2,nt,-12.0,-3.3,i,-0.1,3.3,-9.1,
Cc1[nH]c2ccccc2c1C1=CCNCC1,nt,-9.4,-6.4,6.5,i,-30.0,-13.5,4.4,
C[N+]12CCC(CC1)C(=C(c1ccccc1)c1ccccc1)C2,25.9,nt,2.0,-4.7,i,-8.9,-8.6,7.6,
CC(=O)c1c(C)n(CC2CCCO2)c2ccc(O)cc12 (configuration not stated),nt,-6.2,-8.0,1.0,i,6.5,3.0,-6.4,
Cc1ccc(S(=O)(=O)NCC2CCC(C(=O)N3CCC4(CC3)OCCO4)CC2)cc1 (configuration not stated),nt,1.8,1.9,7.9,i,1.8,2.8,7.7,

# Three structures from above, sorted by SMILES length, largest number first:
SMILES,HIV Env fusion,Yeast UUG start,eIF4H FP inh,PABP FP inh,Rce1 inh,MT1-MMP act inh,MT1-MMP act inh RFP,CSC inhib,others
O=C(NC1CCCCC1)N1Cc2cc(-c3cccc(F)c3)ccc2-n2nncc2C1,-21.2,-14.4,nt,nt,nt,1.3,-2.1,nt,
CC12CN3CC(C)(CN(C1)C31CCOCC1)C2=O,nt,-2.7,-9.6,-5.1,i,2.5,3.2,nt,
CCn1cc(C(=O)c2ccccc2)c2ccccc21,7.4,nt,2.9,8.2,i,0.0,-1.4,nt,

# Further compounds follow:
SMILES,HIV Env fusion,Yeast UUG start,eIF4H FP inh,PABP FP inh,Rce1 inh,MT1-MMP act inh,MT1-MMP act inh RFP,CSC inhib,others
O=C(N/N=C/c1c(O)n(C2CC2)c(=S)[nH]c1=O)c1ccccc1Cl,-0.7,-12.1,3.8,31.0,i,17.1,34.1,-8.4,
Cc1[nH]c2ccccc2c1/C=N/O,-19.3,-6.4,-5.3,-8.5,i,11.2,5.0,-5.9,
COc1ccc(-n2c(/C=C/c3ccc(O)cc3)nc3ccccc3c2=O)cc1,19.1,-21.1,-1.4,-3.7,i,-68.6,-6.7,38.2,
Cc1noc(C)c1C(=O)N1CCC2(CC1)OCCO2,nt,nt,-4.5,17.9,i,0.4,3.5,-3.1,
CN(C(=O)Cc1ccc(Cl)c(Cl)c1)C(CN1CCCC1)c1cccc(OCC(=O)O)c1 (configuration not stated),-1.9,-5.3,nt,nt,nt,-2.5,3.8,-8.2,
CCC(=NCc1ccco1)c1c(O)n(C)c(=O)n(C)c1=O,5.9,nt,-1.9,-0.9,i,2.9,-13.1,3.6,
COc1ccc(/C=C2/C(=O)NC(=O)N(C3CCCCC3)C2=O)cc1CSc1ccccn1,nt,nt,9.4,14.7,i,nt,nt,-8.3,
Cc1ccc2c(c1)C1CN(C)CCC1N2C(=O)CCCN1C(=O)c2cccc3cccc(c23)C1=O (configuration not stated),-4.1,-3.4,-6.9,-1.6,i,-7.0,-6.4,-7.0,
Oc1ccccc1-[n+]1c(-c2ccccc2)cc(-c2ccccc2)cc1-c1ccccc1,-32.8,8.2,nt,nt,i,-13.8,-24.3,16.2,
C=Cn1ccnc1P(=S)(c1nccn1C=C)C1CCCCC1,nt,-16.4,-8.7,-5.5,i,0.4,-0.4,1.1,
CCCCn1nnnc1C(C1CC1)N1CCC2(CC1)C(=O)NCN2c1ccccc1 (configuration not stated),-7.4,3.0,nt,nt,nt,7.3,-1.6,nt,
CCNc1nc2[nH]c(=O)c3c(c2s1)OC(N)=C(C#N)C3c1cccs1 (configuration not stated),nt,nt,?,68.5*,i,-1.4,4.3,2.3,
Cc1ccc(OCC(=O)N2CCN(C)CC2)c(Br)c1,nt,1.0,3.9,-11.6,i,0.8,5.5,-6.5,
COC(=O)C1=C(c2ccc(F)cc2OCc2ccccc2)C[C@@H]2CC[C@H]1N2C(=O)NCc1ccc(C(C)(C)C)cc1,30.3,-13.5,nt,nt,nt,-13.9,-16.0,12.2,
N#CC12CNCC1CN=N2 (configuration not stated),-39.0,-8.5,-3.1,5.9,i,-4.2,2.7,-5.9,
CC(NCc1ccc(Cl)c(Cl)c1)C(O)c1ccccc1 (configuration not stated),nt,-2.2,-7.5,8.0,i,0.5,-4.0,7.6,
CC(C)(O)C1C2OC(=O)C1C1(O)CC3OC34C(=O)OC2C14C (configuration not stated),2.2,-5.9,nt,nt,nt,-3.7,1.8,nt,
COc1ccc(N=Nc2c(O)[nH]c(=S)[nH]c2=O)cc1,-20.7,nt,?,-3.4,i,3.5,3.9,-2.7,
Cc1cc(=O)[nH]c(CCl)n1,-2.3,nt,-1.0,-1.2,i,2.6,-0.7,-32.7,
CN1CCN(c2ccc([N+](=O)[O-])c(Sc3ccccn3)c2)CC1,15.4,nt,3.5,-1.6,i,6.1,0.1,8.8,
COc1ccc(C(=O)C(C)(C)NO)cc1,nt,3.3,4.3,17.9,i,4.9,7.4,-3.4,
